# LASV entry inh = blocks Lassa virus binding to or entry into cells; Lassa virus pseudotype entry inhibition, cell reporter; control for the full effect not named in the record; Potency, µM (highest dose often 37.9 µM), without a hit: at the highest dose activity change, negative = inhibition, most hits filed as inhibitors; 300,000 compounds, 1.2% hits; AID 540256; active means well fitted inhibition curve with a large enough effect; inconclusive means small, poorly fitted or top-dose-only effect, or effect the other way; inactive means flat fitted curve, though single readings scatter; tested in HEK293 cells; also: % is scaled to controls: 0 for no effect and ±100 for the full control effect; nearly all actives have a fitted effect of over 50% in size; luciferase read-out
# RE007 growth inh = less growth of the S. pombe RE007 Vpr strain; S. pombe RE007 Vpr strain, BacTiter-Glo ATP luminescence, 24 h; control for the full effect not named in the record; Potency, µM (doses to about 92.2 µM), for the others: at the highest dose activity change, negative = less growth; 360,000 compounds, 0.21% hits; AID 651644; active = well fitted falling curve with a large enough effect; inconclusive = small, poorly fitted or top-dose-only effect; inactive = no such curve, though single readings can be large or run the other way;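 also: % is scaled to controls: 0 for no effect and ±100 for the full control effect; nearly all actives have a fitted effect of over 50% in size; the assay follows cell death caused by Vpr and the record does not say whether a fall means rescue or toxicity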
#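 Fission yeast strain RE007, carrying one chromosomally integrated HIV-1 vpr copy, was seeded at OD 0.01 in PMG+AL medium with 23 nL pinned compound. After 24 h at 30 °C and 99% humidity, viability was read by BacTiter-Glo luminescence.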
# Cruzain inh Det = blocks cruzain activity in presence of Triton detergent. Potency, µM, for inactives: max response, negative = inhibition, actives largely listed as inhibitors. purified cruzain, Z-FR-AMC fluorescence, 0.01% Triton. 200,000 compounds, 0.43% hits. AID 1478; active = well fitted curve in the direction sought with a large enough effect; inconclusive = small, poorly fitted or top-dose-only effect, or another doubt; inactive = no such curve, though single readings can be large; an effect the other way counts as inactive or inconclusive;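 also: plate controls were neutral wells for no effect and buffer without enzyme for full effect; nearly all actives have a fitted effect of over 40% in size; top concentration of the series not given in the record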
# Target sequence (P25779 123-467 limits assumed): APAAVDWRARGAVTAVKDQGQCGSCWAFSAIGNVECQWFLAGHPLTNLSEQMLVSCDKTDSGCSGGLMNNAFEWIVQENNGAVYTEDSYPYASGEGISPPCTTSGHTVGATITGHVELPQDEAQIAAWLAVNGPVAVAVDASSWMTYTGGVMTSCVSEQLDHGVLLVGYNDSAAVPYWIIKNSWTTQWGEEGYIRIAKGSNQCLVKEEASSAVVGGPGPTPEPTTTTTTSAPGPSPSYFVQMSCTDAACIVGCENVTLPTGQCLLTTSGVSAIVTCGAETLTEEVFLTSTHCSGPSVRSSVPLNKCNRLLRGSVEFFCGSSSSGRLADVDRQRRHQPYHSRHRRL
#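 Sodium acetate buffer (100 mM, pH 5.5) containing 5 mM DTT and 0.01% Triton X-100 hosted 1.5 nM cruzain and test compound for 15 min at room temperature. Cleavage of 2 uM Z-FR-AMC was then tracked by fluorescence.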
# 2A StopGo = FMDV 2A StopGo reporter, luciferase signal. AID 1159524. 410,000 compounds, 1.2% hits. human cells with a luciferase reporter of 2A StopGo recoding; control for the full effect not named in the record. Potency, µM (series often up to 57.9 µM), for inactives: at the highest dose signal change, negative = less light; active = well fitted falling curve with a large enough effect; inconclusive = small, poorly fitted or top-dose-only effect; inactive = no such curve, though single readings can be large or run the other way; tested in HEK293T cells; also: % is scaled to controls: 0 for no effect and ±100 for the full control effect; nearly all actives have a fitted effect of over 45% in size; luciferase light after 4 h
# Marburg entry inh = blocks Marburg virus binding to or entry into cells; Marburg virus pseudotyped entry inhibition, cell reporter; control for the full effect not named in the record; about a third of the inactives were read at about 46 µM; Potency, µM (doses to about 37.8 µM), without a hit: at the highest dose activity change, negative = inhibition, actives largely listed as inhibitors; 300,000 compounds, 1.8% hits; active = well fitted inhibition curve with a large enough effect; inconclusive = small, poorly fitted or top-dose-only effect, or effect the other way; inactive = flat fitted curve, though single readings scatter; tested in HEK293 cells; about a fifth of its hits are not listed in these tables; also: % is scaled to controls: 0 for no effect and ±100 for the full control effect; luciferase read-out
# Cruzain noTriton = inhibitors of Trypanosoma cruzi cruzain without detergent; AID 1476; purified cruzain, Z-FR-AMC fluorescence, no detergent; Potency, µM, without a hit: max response, negative = inhibition, hits mostly inhibitors; P25779; 200,000 compounds, 2.3% hits; active = well fitted curve in the direction sought with a large enough effect; inconclusive = small, poorly fitted or top-dose-only effect, or another doubt; inactive = no such curve, though single readings can be large; an effect the other way counts as inactive or inconclusive;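 also: plate controls were enzyme without inhibitor for no effect and buffer without enzyme for full effect; nearly all actives have a fitted effect of over 40% in size; top concentration of the series not given in the record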
#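 Purified cruzain at 1.5 nM, pre-incubated 15 min with compound at room temperature in 100 mM sodium acetate pH 5.5, 5 mM DTT, 0.00005% Triton X-100. Reaction started with 2 uM Z-FR-AMC; AMC fluorescence increase over 60 s gives rate.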
# SARS PLP yeast = inhibitors of SARS-CoV papain-like protease in yeast | S. cerevisiae expressing SARS-CoV PLpro, growth rescue; control for the full effect not named in the record | Potency, µM (highest dose often 32.9 µM), without a hit: top-dose activity, positive = growth rescue | 330,000 compounds, 0.19% hits | AID 485353; also: 0% is about no effect; nearly all actives have a fitted effect of over 55% in size; growth read by luminescence after 48 h
# NS1 function inh = blocks influenza NS1 protein function. S. cerevisiae slowed by influenza A NS1, growth recovery by OD600. Potency, µM (highest dose often 46.1 µM), for inactives: top-dose activity, positive = more growth. 270,000 compounds, 0.4% hits. AID 2326; also: actives are rising curves; nearly all actives have a fitted effect of over 50% in size
#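 In this qHTS, NS1 from influenza A is expressed in budding yeast, where it slows growth. Cells are switched from glucose to 2% galactose medium (pH 6.0, -URA), treated with compound, and growth recovery is read at OD600.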
# Numbers without * were called inactive; ? = inconclusive; · = no result given; & = joins results of further samples; [ ] = another dose, or the depositor's remark. Unless noted, calls follow the shape of the dose curve; as a rule, active means well fitted rising curve with a large enough effect; inconclusive means small, poorly fitted or top-dose-only effect; inactive means no such curve, though single readings can be large or run the other way. Potency is read from the fitted curve at half-maximal effect.
SMILES,LASV entry inh,RE007 growth inh,Cruzain inh Det,2A StopGo,Marburg entry inh,Cruzain noTriton,SARS PLP yeast,NS1 function inh
Cc1ccc(C(C(=O)NCc2ccccc2)N(C(=O)c2ccccn2)c2ccccc2)o1 (stereo not drawn),?,16%,·,-11%,5%[46.1 µM],·,1%,2%
CCOc1ccccc1NC(=O)Cn1ncc2ccc([N+](=O)[O-])cc21,11%,9%,·,?,?,·,4%,5%
CCn1cc(C(=O)NCC(OC)OC)c(=O)c2cc(S(=O)(=O)N3CCOCC3)ccc21,·,1%,·,-12%,·,·,-1%,15%
COC(=O)c1c(S(=O)(=O)NCc2ccccc2)sc(C(=O)O)c1C,26%,7%,0.6%,34%[activator],23%,4%,7%,-1%
CC(C)COc1ccc(C(=O)Nc2onc3c2CCCC3)cc1,?,·,-1.5%,-11%,·,5%,·,·
Cc1ccc2oc(=O)n(CCNC(=O)Nc3ccccc3Cl)c2c1,?,·,-1.2%,?,-10%[46.1 µM],-9%,·,·
COC(=O)CS(=O)(=O)c1nc2ccccc2nc1N1CCCCC1,20%[46.1 µM],·,-6.8%,-14%,-29%[46.1 µM],-17%,·,·
COc1cccc(Oc2ncnc(N)c2[N+](=O)[O-])c1,·,-24%,·,-22%,·,·,-1%,1%
COC(=O)/C=c1/sc2nc3ccccc3n2c1=O,?,-22%,-5.3%,2%,18%,5%,1%,-90%
CCOc1ccc(CN2C(=O)c3ccccc3C2=O)cc1C(=O)N1CCC(C(N)=O)CC1,8%,-16%,·,-20%,?,·,-2%,-16%
O=C1Nc2ccccc2C1Cc1ccccn1 (stereo not drawn),20%,7%,·,3%,4%,·,0%,0%
COc1ccc2c(c1)CC(C(=O)NCCCN1CCN(c3cccc(Cl)c3)CC1)CO2 (stereo not drawn),3%[46.1 µM],·,-3.3%,-27%,·,-2%,·,·
Cc1ccc(OCC(=O)N2CCc3ccccc3C2)c(C)c1,-16%,-4%,·,19%,-2%,·,-9%,-59%
O=S(=O)(NCc1ccccc1)c1ccc(Cl)c(S(=O)(=O)NCc2ccccc2)c1,-9%,3%,-3.5%,17%,-12%,-6%,-6%,-12%
Clc1ccccc1N1CCN(Cc2nnc(-c3ccccc3)o2)CC1,9%[46.1 µM],·,-5.8%,-1%,9%[46.1 µM],8%,·,·
O=C(Nc1nnc(-c2ccc(Cl)cc2)o1)c1nc2ccccc2s1,·,-1%,-9.7%,?,·,?,12%,1%
CCOC(=O)c1c(N2C(=O)C=CC2=O)sc(C)c1C,?,13µM*,-3.1%,·,?,7%,-39%,-32%
CCN(CC(=O)NCc1cccs1)C(=O)c1cc(=O)[nH]c2ccccc12,-10%,-32%,·,2%,15%,·,2%,·
O=C(Nc1ccccc1)c1ccc(-c2ccc([N+](=O)[O-])cc2)o1,-9%,16%,·,1%,15%[46.1 µM],·,-4%,-2%
Cc1c(CC(=O)N[C@H](C(=O)O)C(C)C)c(=O)oc2cc3c(cc12)CCC(C)(C)O3,?,10%,·,13%,?,·,-4%,4%
Cc1cc(=O)oc2cc(OCC(=O)N/N=C/c3ccccc3[N+](=O)[O-])ccc12,-1%,6%,-3.8%,-21%,?,8%,4%,19%
C/C(=N/O)c1cccc(N2Cc3ccccc3C2)c1,13%[46.1 µM],1%,·,29%,?,·,-1%,9%
CCC(Sc1nc2ccccc2s1)C(=O)Nc1nnc(C)s1 (stereo not drawn),17%,2%,-6.5%,7%,-3%,-2%,-8%,-29%
O=C(c1cc2nc(-c3ccco3)cc(C(F)(F)F)n2n1)N1CCc2ccccc2C1,2%,0%,-11%,0%,-4%,?,-3%,-89%
Cc1cc(OCc2cc(C(=O)NC3CCC3)no2)cc(C)c1Cl,·,2%,·,-12%,·,·,-2%,-17%
N/N=C(\c1ccccc1)c1cc(Cl)ccc1N,-6%[46.1 µM],-20%,·,-8%,12%[46.1 µM],·,-16%,-18%
Cc1ccc(OCc2nc(-c3ccccc3)no2)c(C)c1,?,-12%,-5.7%,49%[activator],?,-10%,-3%,-40%
COc1ccc(Nc2oc(COc3ccccc3F)nc2C#N)cc1,·,0%,-21%,0%,·,25µM*,-1%,8%
O=C(NCCSc1c(-c2ccc(Br)cc2)[nH]c2ccccc12)c1ccc(S(=O)(=O)N2CCOCC2)cc1,-23%[46.1 µM],·,-2.0%,-17%,?,?,·,·
O=C(NCCCN1CCOCC1)c1cccc(S(=O)(=O)NCc2ccccc2)c1,3%,0%,·,4%,13%,·,0%,·
COc1cccc(-c2nc(CS(=O)(=O)CC(=O)NCCN3CCOCC3)c(C)o2)c1,2%[46.1 µM],33%,·,7%,28%[46.1 µM],·,2%,-2%
Cn1c(CNC(=O)C2CCCCC2)cc2ccccc21,·,0%,·,19%,·,·,-3%,23%
O=C(CCC(=O)OCC(=O)c1ccc([N+](=O)[O-])cc1)Nc1ccccc1Cl,18%[46.1 µM],-12%,·,2%,4%[46.1 µM],·,?,11%
Oc1ccc(-c2nc(=S)[nH][nH]2)cc1,15%,-1%,3.5%,-4%,11%,12%,19%,28%
Cc1ccc(CNC(=O)CSc2nc3ccccc3nc2Cc2ccc(C)cc2)cc1,27%[46.1 µM],·,2.8%,-11%,·,-16%,·,·
Cc1cccc(S(=O)(=O)Nc2ccc(-c3cn4ccccc4n3)cc2)c1,?,1%,-6.8%,-4%,-2%,-3%,-14%,-16%
N#Cc1c(-c2cccs2)nc(SCc2ccc(Cl)cc2)[nH]c1=O,0%,13%,·,-20%,?,·,-2%,9%
Cc1cc(C)c(C)c(OCCn2ccnc2)c1,·,-6%,·,0%,1%,·,-8%,-8%
CC(=O)c1cccc(NC(=O)C(C)OC(=O)Cc2c[nH]c3ccccc23)c1 (stereo not drawn),-5%,3%,·,-7%,-3%,·,0%,·
CN(Cc1ccccc1)C(=O)c1nn2cccnc2c1Cl,12%,1%,·,6%,12%[46.1 µM],·,0%,·
O=C(c1cccc([N+](=O)[O-])c1)N1CCN(c2ccccn2)CC1,8%,4%,1.6%,-10%,?,1%,6%,?
CCC(CC)C(=O)c1c[nH]c(C(=O)NCc2cccnc2)c1,?,-7%,·,-7%,-22%,·,0%,·
Cc1ccc(C(O)(C(=O)NNC(=O)CN2CCN(C)CC2)c2ccc(C)cc2)cc1,3%,7%,-1.4%,-15%,?,8%,?,-5%
O=C(COc1ccc2ccccc2c1)NNC(=O)c1cnccn1,8%,0%,1.0%,-15%,-41%,5%,14%,29%
CC1Cc2cc(/C(O)=C3/C(=O)C(=O)N(CCN4CCOCC4)C3c3ccc([N+](=O)[O-])cc3)ccc2O1 (stereo not drawn),17%[46.1 µM],3%,·,0%,27%[46.1 µM],·,-4%,-2%
COC(=O)C1OC1c1cc([N+](=O)[O-])ccc1OC (stereo not drawn),?,-10%,·,-15%,0%,·,·,·
COc1ccccc1CC(NC(C)=O)C(=O)NC1CCN(C(=O)c2ccc([N+](=O)[O-])cc2)CC1 (stereo not drawn),1%,-11%,1.8%,-9%,-5%,-5%,1%,-5%
O=C(O)Cc1ccc(N=Nc2c(O)c(C(=O)O)cc3ccccc23)cc1,22%,6%,·,14%,26%,·,-1%,16%
CCCCCCOc1ccc(C(CC(N)=O)C(=O)O)cc1 (stereo not drawn),1%,4%,·,19%,6%[46.1 µM],·,0%,4%
COc1ccc(/C=N/NC(=O)c2cccc(Br)c2)cc1Cn1cc(Cl)cn1,?,9%,-1.8%,?,7.1µM*,?,0%,5%
CCOC(=O)c1cc2occc2n1CC(=O)N1CCN(C(=O)c2ccco2)CC1,1%,-5%,1.1%,·,-3%,16%,-2%,3%
O=C(CCc1ccccc1)N1CCN(c2ccc(F)cc2)CC1,-4%[46.1 µM],28%,·,-5%,7%[46.1 µM],·,-1%,-9%
Cn1c(SCC(=O)N2CCOCC2)nnc1-c1ccc(Cl)cc1Cl,8%,-6%,3.1%,-5%,?,-4%,1%,8%
CCC1OC23CCCCC2C(C#N)(C(=N)O3)C1(C#N)C#N (stereo not drawn),20%,23%,-5.9%,14µM*,1%,-22%,4%,-1%
O=C(NC(=S)Nc1ccc(Cl)c(C(=O)O)c1)c1cccc(COc2ccccc2)c1,-24%[46.1 µM],11%,·,-20%,5%[46.1 µM],·,-6%,-9%
Cc1ccc(N2CC(O)(c3cccs3)[N+]3=C2CCCC3)cc1 (stereo not drawn),2%,-24%,·,-13%,?,·,1%,·
COc1ccc(Cn2c(CCC(=O)Nc3ccccc3OC)nc3cccnc32)cc1,-16%,5%,3.3%,-9%&-16%,?,7%,-5%,·
CC(C)c1ccc(N)c(S(=O)(=O)O)c1,·,-9%,·,-11%,·,·,0%,3%
CC(=O)c1ccc(NC(=O)CSc2nnc(NC(=O)Nc3ccccc3)s2)cc1,26%[46.1 µM],·,-1.5%,27%,·,10%,·,·
Cc1ccc(CCNC(=O)C2CCCN(S(C)(=O)=O)C2)cc1 (stereo not drawn),14%,3%,·,21%,-6%,·,0%,-4%

# Further records
SMILES,LASV entry inh,RE007 growth inh,Cruzain inh Det,2A StopGo,Marburg entry inh,Cruzain noTriton,SARS PLP yeast,NS1 function inh
CCC(C)N(C)Cc1cccc(C2(O)CCN(S(=O)(=O)c3ccc(F)c(C)c3)CC2)c1 (stereo not drawn),?,-4%,-2.0%,?,?,11%,-4%,-9%
Cc1cc(C)nc(NC(N)=NCCc2ccccc2)n1,?,-11%,·,?,7.1µM*,·,·,·
COc1ccc(NS(=O)(=O)c2cn(C)c(=O)n(C)c2=O)cc1,·,-3%,·,-16%,·,·,1%,-3%
O=C(NCCNC(=O)c1cc(OCC(F)(F)F)ccc1OCC(F)(F)F)Nc1ccc(Cl)cc1,?,21%,1.5%,-8%,13%,-1%,-21%,-11%
COc1ccccc1NC(=S)NC(=O)CCc1ccccc1,?,-6%,·,-12%,?,·,7%,-12%
O=C(O)c1cc(NCc2c(F)cccc2Cl)ccc1N1CCOCC1,15%,7%,2.4%,16%,1%,-11%,4%,10%

# Screening data: PubChem BioAssay, National Center for Advancing Translational Sciences (NCATS)
